TAR Tat displ: TAR RNA-Tat peptide displacers, HIV-1, primary screen, biochemical, FRET, FAM/TAMRA-labeled Tat. z-score (test concentration not listed). AID 1259389, 2018. HIV-1 TAR RNA, Tat peptide displacement FRET; stronger effect = higher value. 0.6% of 100,000 active;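 further: score is relative to mean and SD of negative controls; some compounds called inactive have numbers as strong as hits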
CDC25B CDK2 inh: primary biochemical HTRF screen for blockers of M-phase inducer phosphatase 2 binding to CDK2/cyclin A; P30305+P24941; HTRF CDC25B-CDK2/CyclinA binding, anti-His/anti-Flag; stronger effect = higher value; z-score (test concentration not listed); 0.72% of 94,000 active; AID 1259370, 2018;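 further: score is relative to mean and SD of negative controls; strong numbers were not always called active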
Active calls of the source: *; x = no result given.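 How the source made its calls: active means z-score from 3 up in half or more of its runs; inactive means the rest.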

SMILES	TAR Tat displ	CDC25B CDK2 inh
Cc1c(C(=O)CSc2n[nH]c(=O)n2Cc2ccco2)sc2ccc(Cl)cc12	x	-1
O=C(CN1N=NC2C(=O)N(c3ccc(Br)cc3)C(=O)C21)Nc1cccc(Cl)c1 (centres undefined)	0.11	x
Cc1nn(C(=O)c2ccco2)c(C)c1S(=O)(=O)N1CCc2ccccc2C1	1	x
Cc1cc(NC(=O)Cc2cccs2)no1	-3.5	-1.6
Cc1ccc(CN2C(=O)c3ccc(-c4ccco4)n3CC2(C)C(=O)NC2CCCCC2)o1 (centres undefined)	0.46	0.67
CC(CC(=O)NC(C)c1ccc2c(c1)OCCO2)CC1=NS(=O)(=O)c2ccccc2N1 (centres undefined)	-0.64	x
COC(=O)C(C(=O)OC)=C1C2CC3CC(C2)CC1C3	x	-0.12
Nc1cccc(CCc2nc3cc4ccccc4cc3[nH]2)c1	1.9	-1.8
C=CCN1C(=O)C(O)(CC(=O)c2c(C)cc(C)cc2C)c2ccccc21 (centres undefined)	-0.55	0.08
N#Cc1nc(COc2ccccc2)oc1NCc1ccc2c(c1)OCO2	0.5	-0.65
O=C(Cn1c(=O)c2cccn2c2ccc(F)cc21)N1CCc2ccccc21	0.5	x
Cc1c(NC(=O)N(c2ccccc2)c2ccccc2)c(=O)n(-c2ccccc2)n1C	0.79	x

An excerpt of these results, with two lines to a compound.
Every second line gives: TAR Tat displ | CDC25B CDK2 inh
COC(=O)C(C(=O)OC)=C1C2CC3CC(C2)CC1C3
  x | -0.12
CC(CC(=O)NC(C)c1ccc2c(c1)OCCO2)CC1=NS(=O)(=O)c2ccccc2N1 (centres undefined)
  -0.64 | x

Continuation.
SMILES	TAR Tat displ	CDC25B CDK2 inh
Cc1ccc2nc3n(c(=O)c2c1)CCC3	x	-0.01
CCN1CCCC1CNC(=O)c1sc2nc3n(c(=O)c2c1C)CCC3 (centres undefined)	0.6	x
O=C(NCc1ccccc1)c1cc2sccc2s1	x	-0.82
CC1(C)CC(=O)C2=C(C1)OC(N)=C(C#N)C2c1cc(Br)ccc1F (centres undefined)	x	-2.3
COc1ccccc1N1C(=O)Nc2ccccc2S1(=O)=O	1.2	x
O=C(Nc1nccs1)c1ccccc1Cl	x	0.02
Cc1ccc(Cl)cc1Nc1nc2ccccc2n2cnnc12	-0.99	-2.5
CCOc1ccc(-c2nc(-c3cc4cccc(C)c4[nH]c3=O)no2)cc1	1.9	-1.6
O=C(O)c1ccc2c(c1)[C@@H]1C=CC[C@@H]1[C@H](c1cccc(Cl)c1)N2	x	0.38
CCOc1cc(/C=c2/sc3nc4c(C)cc(C)cc4n3c2=O)cc(Cl)c1O	x	-2.8
CC(=O)CSc1nnc(Cn2nnc3ccccc32)n1Cc1ccccc1	x	-0.85
Cn1c(SCc2ccc([N+](=O)[O-])cc2)nnc1-c1ccncc1	x	-2.3

Nothing new here: an excerpt of the list.
SMILES	TAR Tat displ	CDC25B CDK2 inh
O=C(O)c1ccc2c(c1)[C@@H]1C=CC[C@@H]1[C@H](c1cccc(Cl)c1)N2	x	0.38
CCOc1cc(/C=c2/sc3nc4c(C)cc(C)cc4n3c2=O)cc(Cl)c1O	x	-2.8
CC(=O)CSc1nnc(Cn2nnc3ccccc32)n1Cc1ccccc1	x	-0.85
Cn1c(SCc2ccc([N+](=O)[O-])cc2)nnc1-c1ccncc1	x	-2.3

Next results
SMILES	TAR Tat displ	CDC25B CDK2 inh
COC(=O)c1sc(=S)n(-c2cccc(Cl)c2C)c1N	-0.02	x
Cc1onc(-c2c(Cl)cccc2Cl)c1C(=O)OCC(=O)c1ccccc1	x	-0.69
COc1ccccc1-c1nnc(Cc2ccc(F)cc2Cl)o1	2.5	-2.3
CC1C(=O)N(C)c2ccc(S(=O)(=O)Nc3ccc(Cl)cc3Cl)cc21 (centres undefined)	x	0.19
O=C(COc1nsnc1N1CCOCC1)Nc1ccc(F)c(Cl)c1	x	-1.7
CN(C)CC/C=C1/c2ccccc2COc2ccccc21	2.7	x
CCN(CC)c1ccc(C2Nc3c(C)cccc3-c3cc(C)nn32)c(O)c1 (centres undefined)	-1.2	-2.3
COc1ccc(CCNc2oc(COc3ccccc3)nc2C#N)cc1OC	3.8	-0.23
CC1CC(C)CN(S(=O)(=O)N2CCCC(C(=O)NCC3CCCO3)C2)C1 (centres undefined)	2	x
O=C(COc1nsnc1N1CCOCC1)Nc1ccc(Br)cc1	x	1
COc1ccc(OCCSc2nnnn2-c2ccccc2)cc1	-0.1	-0.91
CCOc1ccc(S(=O)(=O)N2CCc3ccccc3C2)c2ccccc12	x	0.9
CSc1nc(/C=N\c2nc(C)cc(C)n2)c(O)n1Cc1cccc(Cl)c1	x	-2
Cc1cc(S(=O)(=O)[C@H]2CS(=O)(=O)C[C@@H]2N2CCc3ccccc3C2)ccc1F	0.97	-1.8
O=C(NCc1ccco1)c1noc2ncnc(N3CCCC3)c12	-0.81	x
Oc1ccc(Cl)cc1Sc1cc(Cl)ccc1O	2.6	-2.6
Cc1ccc(S(=O)(=O)N(Cc2nc(-c3ccccc3)no2)C2CCCCC2)cc1	0.05	0.02
COCc1cc(=O)[nH]c(SCC(=O)N2CCOCC2)n1	x	-0.32
CCCc1cc(=O)n2nc(N(C)CC(=O)NCc3ccc4c(c3)OCO4)sc2n1	1.4	-1.6
O=C(Nc1ccc(F)cc1)C(F)(F)S(=O)(=O)c1ccccc1	x	-0.83
O=C(CSCc1cnn(-c2ccccc2)c1-n1cccc1)Nc1ccccc1Cl	1.6	-4.4
Cc1csc(C(=O)NNC(=O)c2ccc(C(F)(F)F)cc2)c1Cl	x	-1.3
Cc1ncc(-c2ccc(C)c(S(=O)(=O)Nc3ccccc3F)c2)o1	1.3	x
O=C(NCc1ccccn1)c1sc2ncccc2c1-n1cccc1	0.64	x
CC1Cc2cc(S(=O)(=O)N(C)CC(=O)N3CCc4ccccc43)ccc2N1C(=O)C1CC1 (centres undefined)	0.43	x
O=C(C1CCCN(c2ncnc3c2nc2n3CCCCC2)C1)N1CCC(N2CCCCC2)CC1 (centres undefined)	0.19	x
CCN(CC)CC#CC(O)(c1ccccc1)c1ccccc1	-0.63	-0.57
O=C(C1CCCN(c2nc3ccccc3[nH]2)C1)N1CCN(c2ccccc2)CC1 (centres undefined)	0.54	1.2
CCOC(=O)c1sc(NC(=O)CSc2nc3c(c(=O)[nH]2)CCC3)nc1C	2	-1.5
COCCCNc1nc2c(-c3cccc(C(F)(F)F)c3)nnn2c2ccccc12	x	-2.2
CCOc1ccc(-n2cc[nH]c(=O)c2=O)cc1	1.1	-1.9
Cn1c(=O)c2c(ncn2CC(=O)O)n(C)c1=O	1.1	1.3
O=C1CCCc2cc(S(=O)(=O)NCc3ccco3)ccc2N1	1.2	x
CCOC(=O)CNC(=O)N1CC(CC)Oc2ccccc21 (centres undefined)	1.6	x
Cc1c(C(=O)N2CCCC2)oc2c1-c1nn(CC(=O)NCCCN3C(C)CCCC3C)cc1CC2 (centres undefined)	1.9	x
CCOc1ccc(N(Cc2nc3nc(C)cc(=O)n3[nH]2)S(C)(=O)=O)cc1	1.6	-1.6
Cc1nc2ccc(S(=O)(=O)NC(C(=O)N3CCCC(C)C3)C(C)C)cc2s1 (centres undefined)	x	0.39
COc1ccc(C2=NN(C(=O)CCC(=O)O)C(c3ccc(OC)cc3)C2)cc1 (centres undefined)	-0.4	-0.67
CCOc1ccc(CN2CCCC2c2c(C)noc2CC)cc1 (centres undefined)	1.6	x
O=C(Cn1nnc2sc3c(c2c1=O)CCCC3)N1CCOCC1	1.1	-0.22
O=C(C1CCN(S(=O)(=O)c2ccc3[nH]c(=O)ccc3c2)CC1)N1CCOCC1	0.74	x
CSc1ccc(C2CC(=O)N3CN(c4ccc(F)cc4)CSC3=C2C#N)cc1 (centres undefined)	-4.9	5.2*
Cc1ccc(NC(=O)Nc2nc3ccc(S(C)(=O)=O)cc3s2)c(Cl)c1	1.6	-3.3
Cc1cc(C)n2c(SC(CNS(=O)(=O)c3ccccc3)c3ccccc3)nnc2n1 (centres undefined)	0.94	-0.8
O=C(Oc1ccc(-n2cnnn2)cc1)C(c1ccccc1)c1ccccc1	-0.43	-1.5
CCC(CO)Nc1ncnc2onc(C)c12 (centres undefined)	-0.67	x
CCCCc1c(C)nc(N2CCN(c3ccc(F)cc3)CC2)[nH]c1=O	-0.5	x
Cc1ncc(CO)c(CNc2cccc(F)c2)c1O	0.2	x
Cn1ncc2c(NCc3ccc(Cl)cc3)nc(N3CCN(C4CCCCC4)CC3)nc21	0.26	x
CCCCc1nn2c(=O)cc(COC(=O)c3ccc(F)cc3)nc2s1	0.78	x
Cc1ccc(/C=C/c2onc(C)c2[N+](=O)[O-])o1	-0.09	1.1
COc1c(Br)cc(/C=N/NC(=O)c2cc(C)[nH]n2)cc1Br	x	-1.9
CNC(=O)C(C)NC(=O)OC(C)(C)C (centres undefined)	x	0.18
COc1ccc(S(=O)(=O)NCc2cccn2Cc2ccc(Cl)cc2)cc1Cl	0.98	x
CCCCCOC(=O)c1[nH]c2c(c1C)C(=O)CC(c1cc(OC)ccc1OC)C2 (centres undefined)	-1.6	-1.6
c1ccc2c(c1)CC(CN1CCOCC1)O2 (centres undefined)	x	-1.5
COc1ccc(-c2nnc(SCc3cc(=O)n4nc(C)sc4n3)o2)cc1	-0.04	-1.9
Cc1ccc2[nH]c(=O)c(-c3cc(-c4ccccc4)c4ccccc4n3)c(-c3ccccc3)c2c1	x	-10
CC(=O)c1c(C)[nH]c(C(=O)N2CCc3ccccc32)c1C	x	-1.5
c1ccc2c3c([nH]c2c1)CCCCCC3	x	-1.5

Additional entries:
SMILES	TAR Tat displ	CDC25B CDK2 inh
Cc1nc(-c2ccc(S(=O)(=O)NCCN3CCOCC3)cc2)co1	0.31	x
CCCN1C(=O)c2c(C(=O)OC)ncn2CC1(C)C(=O)NC1CCCC1 (centres undefined)	-1.3	x
CN1CCN(c2ccc(C(=O)c3ccc(F)cc3)cc2)CC1	1.9	-2
COc1ccc(C2N3CCCN2CC3)cc1CN1CCOCC1 (centres undefined)	x	-0.9
Cc1cc2c(cc3c(=O)n(CC(=O)N4CCCCC4)ncn32)s1	-1.4	0.63
O=C(c1cnn(-c2ccccc2)c1-n1cccc1)N1CCN(c2ccc(F)cc2)CC1	1.8	-2
OC(c1ccccn1)c1c[nH]c2ccccc12 (centres undefined)	x	-0.67
CCCC(C(=O)NCc1ccccn1)N1Cc2ccccc2C1=O (centres undefined)	-0.7	x
CC(C)OCCCN(C)C1CCN(S(=O)(=O)c2ccc(-c3ccc(=O)[nH]n3)s2)CC1	0.14	x
COC(=O)c1sc(N2CCOCC2)c(C#N)c1N	x	-0.38
O=C(Nc1ccc2[nH]c(=O)sc2c1)NC1CCCCC1	0.69	-0.76
O=C(NCC(c1ccco1)S(=O)(=O)c1ccccc1)C1CCCCC1 (centres undefined)	0.5	x
CCOC(=O)c1cnc2ccc(C)cc2c1NCCCN1CCOCC1	x	-1.7
COc1ccc(-c2c3c(=O)n(C)c(=O)n(C)c3cn2C2CCCC2)cc1	0.65	-1.5
CCN(CC)CCCNC(=O)Cn1ncc2c([nH]c3ccccc32)c1=O	3.3	x
Cc1cc(C)nc(/N=C2\NC(=O)CC(C(=O)O)N2c2ccc(Cl)cc2)n1 (centres undefined)	-0.44	-0.58
CCn1c(CCc2cccc(NS(C)(=O)=O)c2)nc2ccccc21	1.3	x
CC1CCC(NS(=O)(=O)c2ccc3c(c2)CCCC(=O)N3)CC1 (centres undefined)	-0.87	x
O=c1[nH]c2ccc(NCC#Cc3ccccc3)cc2[nH]1	0.85	0.12
Cc1c(NC(=O)c2cc(F)c(N3CCCC3)c(F)c2F)c(=O)n(-c2ccccc2)n1C	-3.1	-1.1
CC(C)OCCCNC(=O)c1cnc(N2CCOCC2)nc1	0.71	x
Cc1ccc(N2C(=O)c3ccccc3C2Nc2cc(C)ccc2C)nc1 (centres undefined)	-1.6	-0.51
Cc1ccc(C)c(N2CCN(S(=O)(=O)c3c(C)noc3/C=C/N(C)C)CC2)c1	0.64	x
CCCN(C1=NC2CS(=O)(=O)CC2S1)c1ccc(C)c(C)c1 (centres undefined)	0.19	-1.4
OCCOCCNc1ncnc2c1c(-c1ccccc1)cn2-c1ccc(Br)cc1	x	-1.6
NC(=O)c1cccc(C(N)=O)c1F	x	-1.6
O=C(OCc1cc(=O)n2nc(C3CC3)sc2n1)c1ccc(NC(=O)c2cccs2)cc1	0.44	x
O=c1n(-c2ccc(F)cc2)nc2n1CCCN2	x	-1.7
O=S(=O)(c1cccc(Cl)c1)c1nnn2c1nc(NCc1ccccc1)c1sccc12	-0.01	x
COc1cc(-c2cc(C(F)(F)F)n3ncc(C(=O)Nc4cccc5ccccc45)c3n2)cc(OC)c1OC	x	-3.7
CCc1c(O)c2ccccc2n(C)c1=O	x	-1.5
COc1ccc(-c2nc(SCc3cc(=O)n4c5c(sc4n3)CCCC5)n[nH]2)cc1	-0.2	x
O=C(O)c1sc2c(cnc3c(F)cccc32)c1-c1ccccc1	-0.6	-1.8

Compound profiles (already shown). Values in the order: TAR Tat displ	CDC25B CDK2 inh
Record of O=C(OCc1cc(=O)n2nc(C3CC3)sc2n1)c1ccc(NC(=O)c2cccs2)cc1 = 0.44	x
Record of O=c1n(-c2ccc(F)cc2)nc2n1CCCN2 = x	-1.7
Record of COc1cc(-c2cc(C(F)(F)F)n3ncc(C(=O)Nc4cccc5ccccc45)c3n2)cc(OC)c1OC = x	-3.7
Record of CCc1c(O)c2ccccc2n(C)c1=O = x	-1.5
Record of O=C(O)c1sc2c(cnc3c(F)cccc32)c1-c1ccccc1 = -0.6	-1.8

An unsorted share of the library; overall some 0.87% were active at least once.
